# YopH inh: blocks Yersinia enterocolitica YopH tyrosine phosphatase; fluorescence Ex485/Em525; inhibition, %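 (about 10 µM by stock and volumes)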; 0.16% of 140,000 active;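 active = inhibition of 50% or more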;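 note: controls were vehicle for no effect and minimum signal wells for full effect; inactives centre near -20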
# Mtb growth: M. tuberculosis H37Rv growth inhibitors, H37Rv strain (AID 1626) | 0.95% of 220,000 active | inhibition, % at 10 µM, or IC50 in µM where a hit was titrated | M. tuberculosis H37Rv growth inhibition; higher % means a stronger effect;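 active = confirmed in a dose series; inconclusive = inhibition above 80% but not taken into the dose series; inactive = below 80% or under 30% at every dose of the series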;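 note: bacteria incubated seven days before Alamar blue readout; 0% = bacteria only wells and 100% = bacteria with antibiotic wells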
# RecA splice inh: inhibitors of M. tuberculosis RecA intein splicing | cell-free RecA intein splicing, fluorescence | inhibition, %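 (about 9 µM by stock and volumes)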 | 0.75% of 290,000 active | P9WHJ3; in the data active = inhibition above about 30%; inconclusive = no clear call, values can overlap the other calls;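 note: 0% = vehicle wells and 100% = reference inhibitor control wells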
# Target sequence (P9WHJ3 whole entry, looked up, canonical isoform): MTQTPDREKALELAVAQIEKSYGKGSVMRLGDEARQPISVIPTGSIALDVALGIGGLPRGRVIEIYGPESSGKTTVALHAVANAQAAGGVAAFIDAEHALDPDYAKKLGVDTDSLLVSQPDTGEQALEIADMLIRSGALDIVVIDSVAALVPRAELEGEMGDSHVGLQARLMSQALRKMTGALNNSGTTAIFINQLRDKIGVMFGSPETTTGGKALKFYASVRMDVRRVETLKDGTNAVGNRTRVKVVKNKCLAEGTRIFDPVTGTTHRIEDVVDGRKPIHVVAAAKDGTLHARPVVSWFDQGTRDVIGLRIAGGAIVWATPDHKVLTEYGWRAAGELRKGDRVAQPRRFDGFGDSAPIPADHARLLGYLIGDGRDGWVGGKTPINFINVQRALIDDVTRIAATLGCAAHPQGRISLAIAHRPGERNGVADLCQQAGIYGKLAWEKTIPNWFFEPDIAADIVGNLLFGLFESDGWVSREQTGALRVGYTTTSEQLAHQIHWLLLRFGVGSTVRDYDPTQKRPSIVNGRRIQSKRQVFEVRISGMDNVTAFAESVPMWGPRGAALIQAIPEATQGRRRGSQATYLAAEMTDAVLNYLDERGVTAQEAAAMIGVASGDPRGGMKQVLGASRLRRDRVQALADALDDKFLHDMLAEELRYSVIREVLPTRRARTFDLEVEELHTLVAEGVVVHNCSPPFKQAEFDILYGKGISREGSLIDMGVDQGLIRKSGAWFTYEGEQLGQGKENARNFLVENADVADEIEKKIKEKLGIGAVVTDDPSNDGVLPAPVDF
# Arbovirus inh: antivirals against arbovirus infection | arbovirus infection cell-based antiviral screen | inhibition, % at 10 µM | 0.37% of 200,000 active;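 active = inhibition from about 30%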;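 note: bluetongue infection of BSR cells; cell survival read as ATP light after 72 h; 0% = infected wells without compound and 100% = uninfected wells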
# Mtb bLac sens: beta-lactam sensitization of Mtb H37Rv. inhibition, % at 25 µM. M. tuberculosis H37Rv growth with meropenem, percent inhibition; hits of this screen are not shown here. 0.27% of 330,000 active;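 active = about 74% or more and at least 40 points above the plate without the antibiotic, then above 30% in a dose series; inconclusive = first-round hits that could not be retested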;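 note: growth measured after seven days incubation then overnight dye step; 0% = bacteria only wells and 100% = bacteria with antibiotic; twin plates without the antibiotic show which effects depend on it; some results filed as inactive read as strong as hits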
# Arbovirus inh repeat: also measured in Arbovirus inh; calls as there; inhibition, %; measured here: 10K subset replicate screen; many hits read low in the repeat;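 first of two repeat runs on a subset; 0% = infected and 100% = uninfected wells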
# The depositor's hits bear a star; ? = inconclusive; . = no result given; & = joins results of further samples. An excerpt (hit frequency here may not be typical).
SMILES,YopH inh,Mtb growth,RecA splice inh,Arbovirus inh,Mtb bLac sens,others
CCc1nnc(NS(=O)(=O)c2ccc(NC(=S)NC(=O)c3ccccc3)cc2)s1,-18,45%,1.2,8,3,
CCCn1c(SCC(=O)NCc2ccccc2)n[nH]c1=O,.,-1%,-0.3,11,-21,
COc1cccc(C(=O)C2CCCN(Cc3cnn(C(C)C)c3)C2)c1 (stereo unspecified),.,3%,-2.0,3,3,
Cc1ccc(-c2noc(CCC(=O)N3CCN(c4cccc(C(F)(F)F)c4)CC3)n2)cc1,1,9%,-2.6,16,7,
FC(F)(F)c1cc(C(F)(F)F)c2ccc(N/N=C/c3cccc(Cl)c3)nc2n1,-30,-1%,.,7,.,
CCOC(=O)c1ccc(NC(=O)c2nc[nH]c2C(=O)N[C@@H](Cc2ccccc2)C(=O)OC(C)(C)C)cc1,.,34%,1.8,.,59,
c1ccc(CNc2ncnc3ccccc23)cc1,-44,-1%,-0.5&0.7,14,6&2,
CCS(=O)(=O)c1ccc2oc(Nc3ccccc3Cl)nc2c1,.,.,3.0,.,11,
C/C(CC(=O)Nc1ccc(N(C)C)cc1)=N\NC(=O)Cc1csc(N)n1,-11,-7%,-4.1,-1,-3,
CCN(CC)c1ccc(NC(=O)CN2C(=O)CSc3ncccc32)c(C)c1,-51,-1%,-2.7,6,-1,Arbovirus inh repeat=11
COc1ccc(NS(=O)(=O)c2ccc(Cl)c(NC(=O)c3cccnc3Cl)c2)cc1,.,10%,0.4,.,1,
Cc1nn(-c2ccccn2)c(C)c1Oc1ccccc1O,-33,8%,2.4,4,-9,
COc1ccc(S(=O)(=O)N2CC(O)CC2C(=O)OCc2nc3sc(C)c(C)c3c(=O)[nH]2)cc1 (stereo unspecified),-29,-7%,-0.5,1,2,
O=C(NC1CCCC1)C(c1cccnc1)N(C(=O)c1csnn1)C1CC1 (stereo unspecified),-4,8%,-1.3,-1,6,
c1ccc(-c2nccc(-c3ccc(-n4cnc5ccccc54)cc3)n2)cc1,-19,.,-1.2,-34,65,
CSc1ccc(CCNC(=O)Cn2ncc3c([nH]c4ccccc43)c2=O)cc1,.,.,-1.0,.,-1,
Clc1ccc(COn2c(-c3ccc(Cl)cc3Cl)nc3ncccc32)cc1,10,7%,19,-12,8,
Cc1nc(C(F)(F)F)ccc1C(=O)NCC(O)c1ccccc1 (stereo unspecified),.,.,0.2,.,-5,
Cc1cc(C)c(S(=O)(=O)c2ccccc2C)c(N(C)C)n1,-28,-7%,1.2,-2,-9,
CN1CCC(N(C)C(=S)NCCc2ccccc2)CC1,.,-2%,0.1,-11,-5,
CCSc1nc(-c2ccccc2)nc2c1CCCC2,.,8%,2.8,11,4,
Cc1c(Cl)cnc(NC(=O)COC(=O)c2cc3c(s2)CCC(C)C3)c1Cl (stereo unspecified),-24,17%,1.5,-7,75,
Cc1ccnc(SCC(=O)Nc2sccc2C#N)n1,.,.,2.4,.,-2,
CCS(=O)(=O)N1CCc2cc(OC)c(OC)cc2C1,-17,-7%,1.0,3,-3,
O=[N+]([O-])c1cccc(/C=C/c2nc(C=Nc3ccccc3)c(O)o2)c1,-22,-4%,-2.6,-2,-5,
O=C(c1ccccc1)[C@@H]1[C@@H]2C(=O)N(c3ccc(F)cc3)C(=O)[C@@H]2C2CCCN21 (stereo partly specified),.,-18%,-1.7,.,-1,
Cc1nn(-c2ccccc2)c(Cl)c1/C=C/C(=O)c1ccc(O)cc1,-31,8%,1.7,-5,8,
O=C(NCc1ccco1)c1ccc2[nH]c(=O)c(=O)[nH]c2c1,.,.,4.0,.,1,
CC1(C)CC(=O)C2=C(C1)NC(=O)NC2c1ccccc1Cl (stereo unspecified),.,.,2.3,.,-13,
CCOC(=O)C1(CCOc2ccccc2)CCN(CCCn2cccn2)CC1,.,4%,3.8,-14,-1,
O=C(O)C1CN2CCC1CC2 (stereo unspecified),-50,1%,-0.5,5,8,Arbovirus inh repeat=1
O=C(O)C1C2C=CC(O2)C1C(=O)NCc1ccc(Cl)cc1 (stereo unspecified),-30,-12%,-1.4,2,-7,
Clc1ccc(CO/N=C(\Cn2ccnc2)c2ccc(Cl)cc2Cl)c(Cl)c1,.,?,32*,.,99,
CCOC(=O)c1sc(-c2ccc(C)cc2)c(C#N)c1C,-7,70%,-0.8,-9,89,
CCc1nc2ccc(C(=O)NCc3ccco3)cc2nc1CC,-22,2%,0.4,-5,59,
CC(C)OC(=O)c1ccc2nc3ccccc3nc2c1,.,.,-0.1,.,97,
CN(c1cccc(NC(=O)c2ccc(CN3CCc4ccccc4C3)cc2)c1)S(C)(=O)=O,.,.,1.9,.,-1,
Cc1nc2ccccn2c1C(=O)/C=C/c1cccc([N+](=O)[O-])c1,.,?,-1.3,3,88,
CCOC(=O)C1CCN(S(=O)(=O)CCNC(=O)c2ccc(F)cc2)CC1,.,.,-2.2,.,-2,
O=c1[nH]c(=O)n(CCc2ccccc2)c(O)c1C=NCCCn1ccnc1,-37,-3%,0.7,6,-5,
Cc1cc(=O)[nH]c(N/N=C/c2ccc(N(C)C)cc2)n1,.,-2%,-7.8,-5,-3,
O=C1C2CC=CCC2C(=O)N1Cc1ccccc1 (stereo unspecified),-18,2%,2.9,2,-2,
O=C(Nc1ccccc1-c1ccccc1)c1ccc(Cl)c([N+](=O)[O-])c1,11,2%,6.4,0,10,
CCOc1cc(NC(=O)c2ccccn2)c(OCC)cc1NC(=O)c1ccc(C)cc1,.,1%,-0.5,1,7,
COc1ccc(-c2nnc3ccc(SCC(=O)N4CCCC4)nn23)cc1,10,9%,-2.1,-3,-1,Arbovirus inh repeat=-6
Cc1ccc(CNC(=O)CCNS(=O)(=O)c2cccc3nonc23)cc1,-5,9%,0.4,5,2,
Nc1cc(Cl)ccc1N1C(=O)CCC1=O,.,1%,-2.1,.,10,
O=C1NC(=O)N(c2ccccc2)C(=O)/C1=C/c1ccc([N+](=O)[O-])s1,.,3%,2.3,-4,100,
COn1c2c(c3c4nonc4ccc31)CCCC2,11,-6%,-18,2,1,
C=Cc1ccc(C(=O)NC2CCCN(Cc3ccccc3F)C2)cc1 (stereo unspecified),.,.,-4.1,.,-3,
CCOc1cccc(CN2CCC(n3nccc3NC(=O)CCCc3ccccc3)CC2)c1,.,.,8.6,.,53,
COc1ccc(NC(=O)NNC(=O)COc2ccc3cc(Br)ccc3c2)cc1OC,.,.,1.4,.,-5,
Cc1ccc(NC(=O)c2cccs2)cc1S(=O)(=O)Nc1cccc(Cl)c1,-19,-2%,19,-21,-1,
COc1ccc(-c2cc(C(=O)c3c(N)n(C)c(=O)n(C)c3=O)c3ccccc3n2)cc1OC,.,0%,0.6,4,2,
O=C(Nc1nnc(SCC(=O)N2CCCc3ccccc32)s1)c1ccc2ccccc2c1,-4,9%,2.1,21,10,
CCc1ccc(-c2cc(C)no2)cc1S(=O)(=O)N1CCN(c2ccc(C(C)=O)cc2)CC1,.,.,-1.4,.,4,
Cc1cc(C)c(CN2CCCC(CNC(=O)c3ccc(F)cc3)C2)c(-n2cccn2)c1 (stereo unspecified),.,0%,-1.9,-6,-5,
O=C(O)CSc1nnc(-c2ccncc2)n1CCc1ccccc1,-22,-10%,0.3,-5,0,
CCN(CC)C(=O)CSc1nc2[nH]ncc2c(=O)[nH]1,.,7%,-4.0,4,-11,
c1ccc2c(c1)oc1c(NCC3CCCO3)ncnc12 (stereo unspecified),-14,4%,-2.2,2,-6,
# Following part.
SMILES,YopH inh,Mtb growth,RecA splice inh,Arbovirus inh,Mtb bLac sens,others
Cc1nnc(SCC(=O)Nc2ccc3[nH]c(=O)[nH]c3c2)s1,.,.,-0.6,.,1,
Cc1ccc(CN2C(=O)[C@@H]3Cc4c([nH]c5ccccc45)C(C)(C)N3C2=O)cc1,.,3%,2.2,.,79,
O=c1nc(N/N=C/c2ccccn2)cn[nH]1,.,-6%,.,-11,-4,
CC1C/C(=N\NC(=O)c2ccc(NS(=O)(=O)c3ccc(Br)cc3)cc2)CC(C)(C)C1 (stereo unspecified),-30,4%,1.8,1,5,
COc1ccc(/C=N\n2nnc3ccccc32)cc1,-30,.,-0.2,-5,-3,
Cc1cccc(CS(=O)(=O)Cc2ccc(C(=O)NCc3ccco3)o2)c1,-5,.,-3.8,-5,-4,
CC(C)=CC(=O)OCC(=O)Nc1ccc(SC(F)F)cc1,.,96%,0.2,-2,93,
Cc1ccc(SCc2cc(=O)[nH]c(Nc3nc(C)c4cccc(C)c4n3)n2)cc1,-3,0%,-0.6,3,-7,
O=C(CCN1CCCCC1)Nc1ccc(Br)cc1C(=O)c1ccccc1,.,.,-0.8,.,34,
N#Cc1c(N2C(=O)Nc3ccccc3N2O)sc2c1CCCCCC2,-26,14%,-7.6,35*,-4,
O=C(O)c1ccccc1C(=O)NNc1cccc(Cl)n1,.,-4%,-2.4,-4,-2,
CCCOc1ccc(C(C)=O)cc1Cc1c(O)[nH]c(=S)[nH]c1=O,.,.,0.5,.,0,
Cc1cccc(C(=O)N2CCCCCC2)c1[N+](=O)[O-],.,7%,3.6,4,2,
CCOC(=O)C1CCN(C(=O)CSc2c3c(nc4ccccc24)CCC3)CC1,.,11%,4.4,11,-4,
O=C(CCC(=O)N1C[C@H]2C[C@@H](C1)c1cccc(=O)n1C2)NCc1cccc(C(F)(F)F)c1,.,.,-0.5,.,-3,
CCOC(=O)CSC1=NC(=O)/C(=C/c2ccc(Br)cc2)S1,.,-1%,14,-11,100,
Cc1cc(OCC(=O)NCCCN2CCCC2=O)c2c(C)c(C)c(=O)oc2c1,.,.,5.9,.,-4,
CCC(Oc1ccccc1)C(=O)Nc1cc(C)on1 (stereo unspecified),-11,7%,13,1,6,Arbovirus inh repeat=4
COc1ccc(Cc2nnc(SCC(=O)Nc3ccccc3C#N)o2)cc1,.,.,0.1,.,-2,
COc1ccc(S(=O)(=O)N(C)c2ccc(C(=O)N3CCCC3)cc2)cc1,.,3%,10,24,-6,
Cc1cc(C)c(S(=O)(=O)NC2CC2)c(C)c1,.,.,-1.7,.,3,
O=C(COc1ccccc1)N1CCN(C/C=C/c2ccccc2)CC1,3,-6%,.,2,-3,
CCOC(=O)N1CCN(C2CCCN(C(=O)c3cccc(N(C)C)c3)C2)CC1 (stereo unspecified),.,.,0.2,.,1,
O=C(OCC1OC(n2cc(Br)c(=O)[nH]c2=O)C(Br)C1O)c1ccccc1 (stereo unspecified),.,.,-0.1,.,-4,
CCN1/C(=C/c2ccc3cc(C)ccc3[n+]2CC)Sc2cc(C)c(C)cc21,.,?,.,-35,.,
COc1ccccc1-n1c(SCC(=O)Nc2ccc(Br)cc2)nc(O)cc1=O,.,-7%,2.1,.,5,
CC1CN(C(=O)CCC(=O)N2CCN(c3ccccn3)CC2)c2ccccc2O1 (stereo unspecified),.,.,-1.3,.,-5,
COc1ccc(NC(=O)CSc2nc3ccccc3c(=O)n2CCCN2CCOCC2)c(OC)c1,.,-5%,-4.3,1,0,

# Assay outcomes: PubChem BioAssay, several laboratories
